Arbovirus anti = arbovirus infection inhibition | hit rate 0.37% among 200,000 | inhibition, % at 10 µM | arbovirus infection cell-based antiviral screen;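 active = inhibition from about 30%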;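 note: bluetongue infection of BSR cells; cell survival read as ATP light after 72 h; 0% = infected wells without compound and 100% = uninfected wells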
YopH PTP inh = YopH (Yersinia) phosphatase inhibition; hit rate 0.16% among 140,000; inhibition, %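 (about 10 µM by stock and volumes)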; fluorescence Ex485/Em525;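 active = inhibition of 50% or more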;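 note: controls were vehicle for no effect and minimum signal wells for full effect; inactives centre near -20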
RecA splice inh = blocks M. tuberculosis RecA intein splicing | P9WHJ3 | cell-free RecA intein splicing, fluorescence | inhibition, %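 (about 9 µM by stock and volumes)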 | hit rate 0.75% among 290,000 | AID 2221; in the data active = inhibition above about 30%; inconclusive = no clear call, values can overlap the other calls;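 note: 0% = vehicle wells and 100% = reference inhibitor control wells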
Target sequence (P9WHJ3 whole entry, looked up, canonical isoform): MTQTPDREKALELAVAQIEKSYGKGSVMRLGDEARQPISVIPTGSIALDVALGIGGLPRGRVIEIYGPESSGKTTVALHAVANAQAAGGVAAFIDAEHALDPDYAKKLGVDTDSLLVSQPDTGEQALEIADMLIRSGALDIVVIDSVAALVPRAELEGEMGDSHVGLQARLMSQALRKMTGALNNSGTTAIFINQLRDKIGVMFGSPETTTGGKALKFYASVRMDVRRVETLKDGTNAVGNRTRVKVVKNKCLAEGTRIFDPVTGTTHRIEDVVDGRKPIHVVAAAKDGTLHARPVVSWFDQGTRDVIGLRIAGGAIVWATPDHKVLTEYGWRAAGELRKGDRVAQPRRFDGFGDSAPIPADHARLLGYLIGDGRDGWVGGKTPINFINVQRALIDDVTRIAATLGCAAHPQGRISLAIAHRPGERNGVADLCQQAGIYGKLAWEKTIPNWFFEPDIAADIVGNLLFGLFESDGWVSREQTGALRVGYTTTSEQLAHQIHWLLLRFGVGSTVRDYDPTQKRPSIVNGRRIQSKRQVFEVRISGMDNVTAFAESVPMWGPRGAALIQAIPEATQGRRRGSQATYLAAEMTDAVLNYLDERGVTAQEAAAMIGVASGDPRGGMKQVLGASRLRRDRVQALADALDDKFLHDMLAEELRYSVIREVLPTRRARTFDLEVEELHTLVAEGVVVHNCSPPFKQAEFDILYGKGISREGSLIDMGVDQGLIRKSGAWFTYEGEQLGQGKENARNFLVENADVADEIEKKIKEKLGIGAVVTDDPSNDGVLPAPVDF
Mtb bLac sens = beta-lactam sensitization of Mtb H37Rv; M. tuberculosis H37Rv growth with meropenem, percent inhibition; hits of this screen are not shown here; inhibition, % at 25 µM; hit rate 0.27% among 330,000; AID 434955;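 active = about 74% or more and at least 40 points above the plate without the antibiotic, then above 30% in a dose series; inconclusive = first-round hits that could not be retested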;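 note: growth measured after seven days incubation then overnight dye step; 0% = bacteria only wells and 100% = bacteria with antibiotic; twin plates without the antibiotic show which effects depend on it; some results filed as inactive read as strong as hits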
Mtb H37Rv = M. tuberculosis H37Rv growth inhibitors, H37Rv strain (AID 1626); M. tuberculosis H37Rv growth inhibition; higher % means a stronger effect; inhibition, % at 10 µM; hits with a dose series show IC50 in µM; hit rate 0.95% among 220,000;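 active = confirmed in a dose series; inconclusive = inhibition above 80% but not taken into the dose series; inactive = below 80% or under 30% at every dose of the series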;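 note: bacteria incubated seven days before Alamar blue readout; 0% = bacteria only wells and 100% = bacteria with antibiotic wells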
Arbovirus anti repeat = recorded beside Arbovirus anti, whose call it bears; inhibition, %; measured here: 10K subset replicate screen; many hits read low in the repeat;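 first of two repeat runs on a subset; 0% = infected and 100% = uninfected wells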
* marks the source's active call; other numbers are inactive results; ? = inconclusive; . = not tested or not shown; & = joins results of further samples. A portion of the library, so the mix of outcomes need not match the whole.

SMILES | Arbovirus anti | YopH PTP inh | RecA splice inh | Mtb bLac sens | Mtb H37Rv | others
CC(=O)c1ccccc1C(=O)N1CCCC(CNC(=O)c2ccccc2Cl)C1 (centres undefined) | . | . | 0.8 | 8 | .
CS(=O)(=O)c1ccc(C(=O)OCc2nnc(-c3ccccc3)o2)cc1[N+](=O)[O-] | -2 | . | 73* | . | 4%
COc1ccc(C(=O)N2CC(=O)N(CCc3ccccc3)C(=O)C2)cc1OC | 10 | -43 | -8.1 | 5 | 1%
O=C1c2ccccc2C(=O)N1Cc1ccccn1 | 10 | . | 9.0 | 1 | 2%
CCOc1ccc(N2CC(C(=O)NCCc3ccc(S(N)(=O)=O)cc3)CC2=O)cc1 (centres undefined) | . | . | 0.6 | 2 | .
Cc1ccccc1C(N)c1ccncc1 (centres undefined) | . | . | 0.9 | 1 | .
Cc1ccc(Cc2cncc(O)c2)cc1S(=O)(=O)O | 2 | -8 | -1.6 | 3 | 3%
COc1ccc(S(=O)(=O)NCC(c2cccnc2)N2CCN(Cc3ccccc3)CC2)cc1 (centres undefined) | . | . | 1.0 | -13 | .
Cc1cc(C)n(-c2c(F)c(F)c(CN3CCCCC3)c(F)c2F)n1 | 4 | -29 | 1.9 | -12 | -8%
N#Cc1ccsc1NC(=O)CCS(=O)(=O)c1ccccc1 | . | . | -1.6 | ? | .
CCc1ccc(-n2c(Cc3ccccc3)n[nH]c2=S)cc1 | -2 | . | -0.2 | 5 | 0%
COC(=O)Cn1c(=NC(=O)c2nc3ccccc3s2)sc2cc(S(C)(=O)=O)ccc21 | -2 | -20 | 3.6 | 4 | 7%
O=C1S/C(=C\c2cccs2)C(=O)N1c1ccc(O)cc1 | . | . | -1.6 | -1 | .
Cc1ccc(-n2c(-c3ccco3)nc3nc4ccccc4nc32)cc1F | 1 | -1 | -1.1 | 9 | .
CCC(=O)N1CCCc2cc(S(=O)(=O)N3CCN(c4ccccn4)CC3)ccc21 | 9 | -22 | -1.8 | -1 | 14%
CC(C)(O)c1[nH]c2ccc(C#N)cc2c1C(C)(C)O | . | . | -2.5 | -9 | .
OCCN1CCN(C(=S)c2ccc(Cl)cc2)CC1 | 3 | -14 | 0.8 | 75 | -4%
CSc1nc2nccc(-c3ccc4c(c3)OCO4)n2n1 | 4 | . | -2.1 | -3 | 2%
Cc1cc(C)cc(OCCn2nnc3ccccc32)c1 | . | . | 4.6 | 5 | .
O=C(/C=C/c1ccc(Cl)cc1Cl)N1CCN(c2ccc([N+](=O)[O-])c(N3CCOCC3)c2)CC1 | 19 | -36 | 7.3 | 66 | 82%
COC(=O)c1cc(Br)c(=O)n(-c2cc(C)on2)c1 | -3 | -17 | . | -10 | -9%
CS(=O)(=O)c1ccc2nc(NC(=O)CN3CCCCCC3)sc2c1 | 1 | -60 | -3.3 | -4 | -5%
O=C(c1cccs1)N1CCCN(c2ncnc3scc(-c4ccccc4)c23)CC1 | . | . | 7.2 | -6 | 2%
CC(C)CN(C(=O)c1cc(=O)[nH]c2ccccc12)c1c(N)n(Cc2ccccc2)c(=O)[nH]c1=O | . | . | -5.3 | -6 | .
CCOc1ccc(C2C3=C(CCCC3=O)Nc3nc(C(F)(F)F)nn32)cc1OC (centres undefined) | 6 | -39 | -2.5 | -6 | 4%
COC(=O)c1c(NC(=O)c2c(C)noc2C)sc2c1CCCCCC2 | 6 | -7 | 0.3 | . | -2%
COc1cc2cc(C(=O)N/N=C/c3ccc(F)cc3)[nH]c2cc1OC | . | . | -2.7 | -8 | .
COc1ccc(C(C(=O)Nc2ccc(F)cc2)N(C(=O)Cn2nnc3ccccc32)C2CC2)cc1 (centres undefined) | -13 | -50 | 0.5 | 18 | .
Cc1ccc(Cl)cc1N1CCN(Cc2nc3c(c(=O)[nH]c(=O)n3C)n2CCc2ccccc2)CC1 | -1 | 13 | 1.5 | -5 | -4%
COc1ccc(-c2[nH]ncc2/C=N/NC(=O)c2cc(Br)ccc2O)c(OC)c1 | -2 | -2 | -5.0 | 1 | -1%
COc1ccc(C(=O)OCC(=O)Nc2cc(C)c(C)cc2[N+](=O)[O-])cc1 | -5 | -37 | -9.1 | -10 | -5%
COC(=O)c1c(C)[nH]c(O)c1C=Nc1ccc(Oc2ccccc2)cc1 | 4 | . | -4.3 | 61 | 97%
CSc1ccccc1COC(=O)Nc1ccccc1C | 1 | . | 12 | 3 | -7%
CC(C)C(c1nnnn1C1CCCCC1)N1CCc2ccccc21 (centres undefined) | 1 | -22 | 1.3 | -8 | -10%
O=C(CC1COc2ccccc2O1)NCc1ccccc1 (centres undefined) | -4 | -16 | -2.5 | -6 | -3%
CCCOc1ccccc1-n1sc2c(c1=S)-c1cc(OC)cc3c1N(C(=O)C3=O)C2(C)C | -10 | -3 | . | 11 | -5%
COc1cccc(C(=O)COC(=O)CCC(=O)c2ccccc2)c1 | . | . | -0.8 | 2 | .
COC(=O)c1sccc1NC(=O)CN1CCN(c2ccc(F)cc2)CC1 | 25 | -36 | 12 | 86 | 4%
Cc1ccccc1OCC(=O)Nc1cccc(C(=O)O)c1 | 4 | . | -0.8 | . | 3%
O=C(Nc1ccc(NC(=O)C2CC2)nc1)c1ccccn1 | 12 | -41 | 2.5 | -3 | 0%
CC(=O)c1cccc(OCc2cc(C(=O)N(C)C(C)c3ccccn3)no2)c1 (centres undefined) | . | . | -0.7 | 1 | .
CCn1nc(C)c(CNC(=O)CC2C(=O)NCCN2CC(C)(C)C)c1C (centres undefined) | -4 | . | 0.0 | -10 | -6%
Cc1[nH]c2ccccc2c1/C=N/Nc1ccccn1 | -26 | . | -4.0 | . | 1%
CCOc1cccc(N2C(=O)CC(N(CCc3ccc(OC)c(OC)c3)C(=O)CC)C2=O)c1 (centres undefined) | 6 | 8 | -1.3&-1.0 | -22 | -2%
CN(C)CCN1C(=O)C(=O)/C(=C(/O)c2ccc(S(=O)(=O)N3CCOCC3)cc2)C1c1ccc(F)cc1 (centres undefined) | . | . | 1.0 | 4 | .
Cc1cc(C)nc(NS(=O)(=O)c2cccs2)c1 | -3 | -16 | -0.9 | 6 | -4%
Cc1nc2ccc(C(=O)Nc3ccc(N(C)C)cc3)cc2s1 | . | . | -1.1 | 1 | .
CC1CC(C)(C)N(C(=O)NC2CCCCC2)c2ccccc21 (centres undefined) | 3 | -12 | -2.5 | -1 | -13%
Cn1ncc(Cl)c1C(=O)Nc1sc2c(c1C(N)=O)CCC2 | 7 | -32 | -2.0 | -7 | -4%
CSc1ccccc1NC(=O)c1ccccc1N(Cc1ccccc1)S(C)(=O)=O | -5 | -11 | 0.4 | -5 | 1%
CCN(CC)c1ccc(C(=O)Nn2c(C)nc3ccccc3c2=O)cc1 | . | . | 1.3 | -3 | .
CCOc1cc(/C=C2/NC(=O)NC2=O)cc([N+](=O)[O-])c1O | 4 | . | 1.4 | 4 | 3%
Cc1nc(NC(=O)CN(C)S(=O)(=O)c2ccc(Br)cc2)sc1C | -5 | -13 | 0.8 | -16 | 9%
Cc1cc(=O)oc2ccc(OC(=O)CN3C(=O)c4cccc([N+](=O)[O-])c4C3=O)cc12 | 0 | 48 | -1.9 | 1 | 8%
Cc1ccc(NC(=O)Nc2cnccn2)cc1Cl | 0 | . | 0.0 | -9 | -7%
CCCCOCCCNC(=O)c1ccccc1OCC | 3 | -38 | 2.1 | 6 | 4%
COc1cc(/C=N/n2cc(-c3ccccc3)[nH]c2=S)cc(OC)c1O | . | . | -8.0 | -4 | 0%
CCC(C)[C@H](NC(=O)C1CCN(C(=O)[C@H](Cc2ccccc2)NS(=O)(=O)c2ccc(C)cc2)CC1)C(=O)O (some centres undefined) | . | . | 0.4 | -7 | .
Cc1cc2ccccc2n1CCNC(=O)C(C)Oc1ccccc1 (centres undefined) | 2 | -44 | 5.3 | 0 | 17%
CCN(CC)c1ncc(C#N)c(N)n1 | . | . | -0.2 | -10 | -11%

Additional entries follow:
SMILES | Arbovirus anti | YopH PTP inh | RecA splice inh | Mtb bLac sens | Mtb H37Rv | others
O=c1oc2ccccc2c(Nc2ccc3ncccc3c2)c1[N+](=O)[O-] | -17 | -12 | -4.1 | 81 | ?
O=C(NC1CCCN(Cc2ccccc2F)C1)c1cccc(N2CCCC2=O)c1 (centres undefined) | . | . | -6.0 | 1 | .
O=C(NCCc1ccc(Cl)cc1)C1(c2ccccc2)CC1 | . | . | 4.9 | 9 | .
CC(=O)N1c2ccc(S(=O)(=O)N3CCC(C(=O)NCc4ccc(C)cc4)CC3)cc2CC1C (centres undefined) | . | . | 4.1 | -5 | .
O=C(COc1ccccc1)NC1=NCCS1 | 3 | -25 | . | -6 | -8%
O=C(Cc1ccccc1F)Nc1ccc(S(=O)(=O)N2CCCCC2)cc1 | . | . | 3.0 | -6 | .
O=C(CCc1ccccc1)NNC(=O)c1cccc(F)c1 | 5 | . | -0.8 | -1 | 5%
CC(CC1C(C#N)=C(N)SC(N)=C1C#N)c1ccccc1 (centres undefined) | 21 | -30 | -0.4 | 1 | -7%
O=C(Cc1cccs1)N1CCCC(c2nc(-c3ccc(S(=O)(=O)N4CCCC4)cc3)no2)C1 (centres undefined) | 5 | -27 | 0.4 | -12 | 7%
CCC(=O)N1CCc2cc(S(=O)(=O)CCC(=O)N3CCN(c4ccc(F)cc4)CC3)ccc21 | . | . | -4.0 | -1 | .
COC(=O)C1=C(NC(=O)c2ccc(C)c(C)c2)CCS1 | 3 | -27 | -17 | -5 | -6%
COc1ccccc1C(CNC(=O)C(C)Oc1ccc(Br)cc1)N1CCCC1 (centres undefined) | . | . | 2.6 | -18 | .
Cn1c(=O)[nH]c(=O)c2c1nc(CN1CCN(c3ccc(F)cc3)CC1)n2CCCc1ccccc1 | -3 | -38 | -3.8 | 0 | -5%
Clc1ccc2nsnc2c1NC1=NCCN1 | . | . | -8.3 | 0&-5 | 12%
O=C1OCCC1Sc1nnc(-c2ccc3c(c2)OCO3)n1-c1ccccc1 (centres undefined) | 6 | -45 | -2.1 | -2 | 0%

Overlap with the part before: six compounds, then new ones.
SMILES | Arbovirus anti | YopH PTP inh | RecA splice inh | Mtb bLac sens | Mtb H37Rv | others
CCC(=O)N1CCc2cc(S(=O)(=O)CCC(=O)N3CCN(c4ccc(F)cc4)CC3)ccc21 | . | . | -4.0 | -1 | .
COC(=O)C1=C(NC(=O)c2ccc(C)c(C)c2)CCS1 | 3 | -27 | -17 | -5 | -6%
COc1ccccc1C(CNC(=O)C(C)Oc1ccc(Br)cc1)N1CCCC1 (centres undefined) | . | . | 2.6 | -18 | .
Cn1c(=O)[nH]c(=O)c2c1nc(CN1CCN(c3ccc(F)cc3)CC1)n2CCCc1ccccc1 | -3 | -38 | -3.8 | 0 | -5%
Clc1ccc2nsnc2c1NC1=NCCN1 | . | . | -8.3 | 0&-5 | 12%
O=C1OCCC1Sc1nnc(-c2ccc3c(c2)OCO3)n1-c1ccccc1 (centres undefined) | 6 | -45 | -2.1 | -2 | 0%
CN(CC(=O)Nc1cccc(F)c1)C(=O)C1CC(=O)N(CCc2ccccc2)C1 (centres undefined) | . | . | -0.9 | -12 | .
Cc1ccc(C)c(COC(=O)c2cc(S(=O)(=O)N3CCCCC3)ccc2N2CCOCC2)c1 | . | . | -4.8 | 0 | .
CCOc1ccc(N(CC(=O)NCCCOC)S(C)(=O)=O)cc1 | 16 | -27 | 0.9 | -10 | -13% | Arbovirus anti repeat=2
Cc1c(NC(=S)NC(=O)COc2ccccc2)c(=O)n(-c2ccccc2)n1C | -9 | -35 | -0.9 | -3 | 3%
O=C(Cn1cnc2c(nc3n2CCCCC3)c1=O)Nc1cccc(C(F)(F)F)c1 | . | . | -3.1 | 6 | .
CCn1ncc(Br)c1C(=O)Nc1ccc(OC(F)(F)F)cc1 | . | . | 2.1 | 10 | .
CCNC(=O)Nc1cc2nc(C)n(Cc3ccc(Br)cc3)c2nc1C | 2 | -19 | 1.1 | -1 | 3%
CC1CCCCN1Cc1ccc(N)cc1 (centres undefined) | -3 | -23 | 0.0 | 9 | -3%
COCCNC(=O)c1ccc(N(C)S(=O)(=O)c2ccc(OC)c(OC)c2)cc1 | 2 | 38 | 2.2 | 0 | 1%
CCOc1ccccc1N=C1NC(=O)CS1 | 10 | -5 | -3.0 | -17 | -4%
Cc1ccccc1C(=O)c1cccn1CC(=O)NCc1ccccc1Cl | . | . | 1.5 | 8 | .
CCC(OC(=O)c1nsc(Cl)c1Cl)C(=O)NC(C)(C)CC (centres undefined) | 4 | . | 0.1 | -1 | 1%
COC(=O)CCC(=O)Nc1ccc(S(=O)(=O)N2CCCCCC2)cc1 | 1 | -29 | -1.5 | 3 | -6%
Cc1cc(C)c2[nH]c(=O)c(C(c3nnnn3CC3CCCO3)N3CCC(C)CC3)cc2c1 (centres undefined) | -2 | -29 | 1.4 | -2 | -5%

Screens as filed in PubChem.
